VDR inhibitor – Inhibitors of the vitamin D receptor (VDR): qHTS. actives 0.93% (n = 400,000). Potency, µM, inactives show max response, negative = inhibition, most hits filed as inhibitors. VDR-SRC2-3 peptide fluorescence polarization, 2 h; active = well fitted inhibition curve with a large enough effect; inconclusive = small, poorly fitted or top-dose-only effect, or another doubt; inactive = no such curve, though single readings can be large or run the other way; also: series mostly up to about 120 µM
Target sequence (P11473 whole entry, looked up): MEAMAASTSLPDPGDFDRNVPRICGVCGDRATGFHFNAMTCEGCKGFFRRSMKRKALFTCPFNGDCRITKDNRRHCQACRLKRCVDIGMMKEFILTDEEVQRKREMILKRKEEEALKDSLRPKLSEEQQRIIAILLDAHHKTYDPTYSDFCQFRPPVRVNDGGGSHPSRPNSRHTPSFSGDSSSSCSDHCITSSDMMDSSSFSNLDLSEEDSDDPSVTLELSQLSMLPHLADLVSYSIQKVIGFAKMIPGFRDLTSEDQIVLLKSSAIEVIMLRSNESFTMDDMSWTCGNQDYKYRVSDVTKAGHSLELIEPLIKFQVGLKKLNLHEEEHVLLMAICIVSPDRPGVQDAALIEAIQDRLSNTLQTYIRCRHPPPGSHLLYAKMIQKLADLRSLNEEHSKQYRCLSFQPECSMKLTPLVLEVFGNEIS
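Two reagent solutions held at 4 deg C in the dark were dispensed, compounds pinned at 23 nl, and the mixture incubated 2 h at room temperature. Read-out: fluorescence polarization of VDR–SRC2-3 peptide binding.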
* marks the source's active call; other numbers are inactive results; ? = inconclusive; & = joins results of further samples; [ ] = dose if it differs, or a comment. % is scaled to controls: 0 for no effect and ±100 for the full control effect; potency is read from the fitted curve at half-maximal effect. Not all compounds are listed; the hit share may differ from the screen's.

cpd	SMILES	VDR inhibitor
1	CCN1C(=O)C(CC(=O)Nc2ccc(F)cc2)N(Cc2ccc3c(c2)OCO3)C1=S (stereo not drawn)	-9.2%
2	CCC(C)(C)NC(=O)COc1ccc(OCc2ccccc2)cc1	6.0%
3	CNC(=S)N(Cc1cc2cc(OC)c(OC)cc2[nH]c1=O)C1CCCC1	-14.1%
4	COCCN(C(C)=O)c1nnc(-c2ccccn2)s1	18.0%
5	O=C1CC(C(=O)Nc2nccs2)C(c2ccccc2)O1 (stereo not drawn)	13.1%
6	CCN1CCN(CC(=O)Nc2ccc(Cl)c(S(=O)(=O)N(C)C)c2)CC1	-15.9%
7	N#CC1=C(S)N(c2ccccc2)C(c2ccc(-c3cc(Cl)ccc3Cl)o2)NC1=O (stereo not drawn)	79.4µM*
8	O=C(CN1CCN(S(=O)(=O)c2ccc(Cl)s2)CC1)N1CCOCC1	1.4%
9	Cc1ccccc1Nc1nc(N)nc(COC(=O)[C@@H](NC(=O)c2ccco2)C(C)C)n1	11.8%
10	Cc1nnc(SCCC(=O)Nc2nc(-c3ccccc3)ns2)s1	8.0%
11	COc1ccc2c(c1)c(=O)oc1cc(OCC(=O)NC3CC3)ccc12	-1.7%
12	Cc1cc(O)c(C(C)C)cc1NC(=O)Nc1cccc2ccccc12	-0.3%
13	Cc1cc(OCC(=O)NC(C)c2ccccc2)ccc1[N+](=O)[O-] (stereo not drawn)	21.9%
14	CCn1c(SCc2nc3sc(C(=O)O)c(C)c3c(=O)[nH]2)nc2ccccc21	-3.8%
15	CCc1cccc(-n2c(SCC(=O)c3c(N)n(C4CC4)c(=O)[nH]c3=O)nnc2N2CCOCC2)c1	-15.7%
16	COc1cccc2c1OC1(C)CC2NC(=O)N1c1cccc(C(=O)N2CCN(c3ccccc3)CC2)c1 (stereo not drawn)	3.4%
17	Cc1ccc(Cl)cc1N1CCN(C(=O)Cn2cnc3onc(-c4ccc(F)cc4)c3c2=O)CC1	11.9%
18	CC12CCCCC1=CC(=O)CC2 (stereo not drawn)	-14.0%
19	COc1cc(NC(=O)c2cc3ccccc3cc2OC)ccc1NC(=O)c1cccs1	31.1%[activator]
20	O=Cc1cc(OCc2ccccc2)ccc1[B-](F)(F)F	20µM*
21	CCOc1cc(CNC(=O)CN2CCSc3ccccc32)cc(OCC)c1OCC	14.8%
22	COc1ccc(Nc2nc(N)nc(CN3CCOCC3)n2)cc1	-23.2%
23	O=C(CCN1C(=O)C2C3CC(C(Br)C3Br)C2C1=O)OCC(=O)c1ccccc1 (stereo not drawn)	?
24	S=C(NC1CCCCC1)N1CCC([C@H]2C=NC=N2)CC1	0.0%
25	Nc1c(-c2nc(-c3ccccc3Cl)no2)nnn1-c1ccccc1C(F)(F)F	9.1%
26	COc1ccc(-c2cn(-c3ccc(C)cc3C)c(=S)[nH]2)cc1OC	-5.9%
27	C=CCOc1c(Br)cc(CNc2ccc(NC(=O)C(C)C)c(OC)c2)cc1OCC	-13.2%
28	COc1ccc(NC(=O)CC2C(=O)N(c3cccc(C)c3)C(=O)N2C2CCCCC2)cc1 (stereo not drawn)	-6.2%&-12.1%
29	CCOc1ccc(OCC)c(S(=O)(=O)N2CCCCC2)c1	-9.0%
30	Oc1cccc(NC(=S)Nc2cccnc2)c1	-9.3%

3 of the compounds above, with values ahead of the structure.
no.	VDR inhibitor	Molecule
9	11.8%	Cc1ccccc1Nc1nc(N)nc(COC(=O)[C@@H](NC(=O)c2ccco2)C(C)C)n1
10	8.0%	Cc1nnc(SCCC(=O)Nc2nc(-c3ccccc3)ns2)s1
11	-1.7%	COc1ccc2c(c1)c(=O)oc1cc(OCC(=O)NC3CC3)ccc12

(listing goes on)
cpd	SMILES	VDR inhibitor
31	CCn1cc(/C=C/C(=O)c2ccc(O)cc2)c(C)n1	19.2%
32	COc1ccc(C2=NOC3(CC(=O)N(c4ccc(C)cc4)C3=O)C2)cc1 (stereo not drawn)	0.1%
33	COc1cccc(C(=O)Nc2ccc3nc4n(c(=O)c3c2)CCCC4)c1	3.5%
34	CCN(CC)S(=O)(=O)c1ccc(C(=O)NCc2n[nH]c(=S)n2-c2ccc(Cl)c(Cl)c2)cc1	-6.3%
35	CN(CC(=O)Nc1ccccc1Cl)C(=O)COC(=O)/C=C/c1ccccc1	-3.8%
36	COc1cc(C(=O)OCC(=O)Nc2cccc(S(=O)(=O)N3CCOCC3)c2)ccc1OCC(C)C	2.4%
37	CCCSc1ncc(Cl)c(C(=O)Nc2ccc(CC)cc2)n1	1.5%
38	C=CCn1c(=O)c(C(=O)Nc2cccnc2)c(O)c2ccccc21	-1.5%
39	COc1ccccc1CN1CCCC2(CCN(C(=O)c3cnccn3)CC2)C1	5.1%
40	COCCSc1nnc(NC(=O)CSc2ccccc2)s1	5.7%
41	CCCNc1c(F)c(F)c2c(C)c3ccccc3nc2c1F	-8.6%
42	COc1cc(OC)cc(C(=O)NCCSC2CCCCC2)c1	8.7%
43	O=C(Cc1ccccc1)NN1C(=O)/C(=C/c2ccccc2C(=O)O)SC1=S	1.1%
44	CC(=O)N/C(=N/c1nc(C)cc(C)n1)Nc1ccc(NC(C)=O)cc1	3.4%
45	CCc1noc(C)c1C(=O)OCC(=O)NCc1ccccc1	-7.5%
46	CCOC(=O)C1CCN(C(c2cc3ccc(C)c(C)c3[nH]c2=O)c2nnnn2C2CCCCC2)CC1 (stereo not drawn)	-4.5%
47	NC[C@@H]1O[C@H](OC2[C@@H](CO)O[C@@H](OC3[C@H](O)[C@H](N)C[C@H](N)[C@H]3OC3O[C@H](CO)[C@@H](O)[C@H](O)[C@@H]3N)[C@H]2O)C(N)[C@H](O)[C@@H]1O (stereo partly drawn)	-11.9%
48	CC(SCc1cn2cc(Cl)ccc2n1)C(=O)O (stereo not drawn)	1.7%
49	COc1cc(OC)c(NC(=O)c2cc(CN3CCOCC3)on2)cc1Cl	-1.8%
50	Cc1c(NC(=O)c2noc(C(C)C)c2[N+](=O)[O-])c(=O)n(-c2ccccc2)n1C	-12.1%
51	COc1ccccc1C(c1nnnn1C(C)(C)C)N1CCN(Cc2ccccc2)CC1 (stereo not drawn)	-18.9%
52	CCCCCCCC(=O)O[C@H](CC(=O)O)C[N+](C)(C)C	14.5%
53	N#Cc1ccc(OCc2cccc(S(=O)(=O)N3CCOCC3)c2)cc1	-5.4%
54	O=C(NC1CCN(C(=O)N2CCOCC2)CC1)c1ccccc1	4.5%
55	Cc1ccc(S(=O)(=O)N(C)CC(=O)Nc2ncccc2C)cc1	6.8%
56	COc1ccccc1N1CCSC1C(N)=O (stereo not drawn)	12.0%
57	N#Cc1ccc(NC(=O)C2CC(c3ccc(F)cc3)=NO2)cc1 (stereo not drawn)	1.0%
58	Cc1ccc(-c2noc(-c3ccccc3NC(=O)C3CC(=O)N(c4ccccc4C)C3)n2)cc1 (stereo not drawn)	11.3%
59	CC(C)C(=O)N1CCN(c2ccccc2N)CC1	-6.0%
60	CCN1C(=O)C(CC(=O)Nc2cccc(C(C)=O)c2)S/C1=N\c1ccccn1 (stereo not drawn)	1.8%
61	CC(C)c1ccccc1NC(=O)Nc1ccc2c(c1)OCO2	27.5%
62	COc1ccc(NC(=O)NC2(C(=O)N3CCCCCC3)CCCCC2)cc1	21.7%
63	OC[C@@H](O)C(O)[C@H](O)[C@@H](O)CO (stereo partly drawn)	-0.4%
64	CCOC(=O)c1cc2c(=O)n3ccccc3nc2n(C)c1=NC(=O)c1cc2ccccc2o1	-9.5%
65	Cc1onc(-c2c(Cl)cccc2Cl)c1C(=O)c1c[nH]c(C(=O)NCC2CCCO2)c1 (stereo not drawn)	-5.1%
66	CCOC(=O)c1c(C)[nH]c(C)c1S(=O)(=O)NCC(=O)Nc1ccccn1	12.0%
67	COC(=O)c1c(NS(=O)(=O)c2cccs2)sc2c1CCCC2	5.0%
68	CCOc1ccc(NC(=O)CN(C)C(=O)c2cc(S(=O)(=O)N3CCCCC3)ccc2C)cc1OCC	-23.3%
69	CC1SC(C)C(=O)N(CC(=O)NCc2ccc(F)cc2)C1=O (stereo not drawn)	7.2%
70	Cn1cc(CN2CCC[C@H]2CO)c(-c2cccc(Cl)c2)n1	-1.3%
71	COc1ccc(-n2cc(C(=O)OCc3ccc(Cl)cc3)c3ccccc3c2=O)cc1	18.6%
72	CCCCN1c2ccccc2N(CCCO)c2cc(C)nnc21	5.7%
73	Cc1c(NC(C)c2cc(Cl)ccc2O)c(=O)n(-c2ccccc2)n1C (stereo not drawn)	14.2%
74	CCc1ccc(NC(=O)CSc2nc3c(sc4ccccc43)c(=O)n2CCN(CC)CC)cc1	18.1%
75	COc1cccc(C2Nc3ccc4ccccc4c3C3=C2C(=O)CC(C)(C)C3)c1OCC(=O)O (stereo not drawn)	-6.0%
76	CC(C)CCNC(=O)c1onc(CSc2ccccn2)c1C(=O)NCCC(C)C	?
77	CCOC(=O)/C(=C\Nc1ccc(OC(F)(F)F)cc1)Sc1ncc(C(F)(F)F)cc1Cl	-7.7%
78	COc1cc2c(cc1OC)C(=O)Cc1ccc3c(c1CN(C)CC2)OCO3	-7.2%
79	CCOc1ccc(CN2CCNC(=O)C2CC(=O)NCCc2cnccn2)cc1 (stereo not drawn)	9.3%
80	Fc1cccc(Nc2ncnc3sc4c(c23)CCC4)c1	-0.1%
81	CC(C)Sc1nc2sc3c(c2c2nnc(SCC(=O)NCc4ccco4)n12)CCCC3	-4.5%
82	Cc1ccc(Cn2nnc3c(=O)n(CC(=O)N4CCCc5ccccc54)cnc32)cc1	-13.2%
83	CC(C)(O)c1cn(-c2nonc2N)nn1	11.6%
84	CCOc1cc(CNCc2cccs2)cc(Br)c1OC	-1.5%
85	CCN(CC)c1ccc(S(=O)(=O)N2CCCCC2)cc1NC(=O)CSCc1c(C)noc1C	4.2%
86	Cc1cccc(Nc2nc(N)nc(CCl)n2)c1	7.6%
87	CCN1C(=O)[C@H]2[C@@H](c3ccc(-c4ccc(F)cc4)cc3)N[C@@](C)(C(=O)OC)[C@H]2C1=O	-7.4%
88	COC(=O)c1cnc(NNS(=O)(=O)c2ccc(C(F)(F)F)cc2)nc1C(F)(F)F	-4.3%
89	CCOC(=O)/C=C(\C)Sc1cc(O)c2ccccc2c1O	20µM*
90	COc1ccc(C(=O)NCC(=O)OCC(=O)c2ccc3c(c2)OCCO3)cc1	-10.4%

Random excerpt: 2 entries already listed.
cpd	SMILES	VDR inhibitor
79	CCOc1ccc(CN2CCNC(=O)C2CC(=O)NCCc2cnccn2)cc1 (stereo not drawn)	9.3%
63	OC[C@@H](O)C(O)[C@H](O)[C@@H](O)CO (stereo partly drawn)	-0.4%

VDR inhibitor, entries above that show a hit
cpd	SMILES	VDR inhibitor
7	N#CC1=C(S)N(c2ccccc2)C(c2ccc(-c3cc(Cl)ccc3Cl)o2)NC1=O (stereo not drawn)	79.4µM*
20	O=Cc1cc(OCc2ccccc2)ccc1[B-](F)(F)F	20µM*
89	CCOC(=O)/C=C(\C)Sc1cc(O)c2ccccc2c1O	20µM*

Additional records follow.
cpd	SMILES	VDR inhibitor
91	CCOC(=O)Cc1cc(-c2ccccc2)nc2ccc3ccccc3c12	-0.8%
92	Cc1ccccc1N1CC(C(=O)Nc2ccc(Br)cc2)CC1=O (stereo not drawn)	-11.7%
93	CCc1nnc(N/N=C/c2cc(Br)c(O)cc2O)n1N	4.6%
94	N/C(Cc1nc2ccccc2s1)=N\O	-6.2%
95	CN(C)c1ccc(/C=C(\C#N)C(=O)OCC(=O)N(C)C2CCS(=O)(=O)C2)cc1 (stereo not drawn)	8.4%
96	CCCCOC(=O)c1ccc(O)cc1	-21.9%&-10.3%&3.5%
97	CCCCn1c(SCC(=O)NC2CCS(=O)(=O)C2)nc2cc(S(N)(=O)=O)ccc21 (stereo not drawn)	-0.7%
98	COc1ccccc1CNc1nc(-c2ccc(N(C)C)cc2)nc2ccccc12	?
99	Cc1ccc(NC(=O)COC(=O)CN2CCCCCC2=O)c(C)c1	2.6%
100	CCCc1nnc(NC(=O)Nc2ccc(OC)cc2)s1	-15.6%
101	CCOc1cc(NC(=O)c2ccccn2)c(OCC)cc1NC(=O)c1ccc(OC)cc1	-4.9%
102	CNC(=O)c1ccccc1Sc1ccccc1C#N	-25.5%
103	COC(=O)c1ccc(OC(=O)CCN2C(=O)C3CCCCC3C2=O)cc1 (stereo not drawn)	9.1%
104	COc1cc(NC(=O)c2ccc(NS(=O)(=O)c3c(C)noc3C)cc2)cc(OC)c1	-2.5%
105	COc1ccc(F)cc1S(=O)(=O)NC1CCCC1	2.7%
106	O=C(Cc1cccc(NC(=O)C2CCCN(C(=O)C3CCCCC3)C2)c1)Nc1ccc(C(=O)N2CCOCC2)cc1 (stereo not drawn)	4.0%
107	C/C(=N\NC(=O)c1sccc1-n1cccc1)c1cccs1	-10.0%
108	COc1ccc(OC)c(-n2c(-c3ccccc3)n[nH]c2=S)c1	5.3%
109	COc1cc(NC(=O)CN2C(=O)NC(C)(c3ccc4ccccc4c3)C2=O)c(C)cc1[N+](=O)[O-] (stereo not drawn)	-4.4%
110	CCCC[C@H](CN(N=O)[C@@H](Cc1ccccc1)CN(C)N=O)N(CCc1ccccc1)N=O	-1.4%
111	Cn1nc(C(F)(F)F)c(C(=O)Nc2ccc(Cl)cc2)c1Cl	-3.7%
112	CC1(NCc2ccc(Cl)cc2)COP(=O)(NCc2ccccc2)OC1 (stereo not drawn)	-17.7%
113	CCCc1nc(NCc2ccccn2)c2nnn(Cc3ccccc3F)c2n1	10.0%
114	CCCCCCCCCCCCCCCC(=O)OC[C@H](O)[C@H]1OC[C@@H](O)[C@@H]1O	4.9%
115	CC(O)COc1ccccc1 (stereo not drawn)	0.3%
116	CCOc1cc(C(=O)NCCc2csc3nc(-c4ccc(C)cc4)nn23)cc(OCC)c1OCC	-1.1%
117	CC1(C)CC(CC(=O)O)CC(C)(C)N1	2.1%
118	Cc1ccsc1C(=O)Nc1ccc(S(=O)(=O)N2CCOCC2)cc1	0.7%
